# AF4-AF9 inh – MLL-AF4/AF9 protein interaction inhibition; P42568; AlphaScreen, biotin-AF4 peptide binding to FLAG-AF9; inhibition, % at 10 µM; hit rate 0.47% among 350,000; AID 651704;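 active means every replicate reaching a set inhibition limit, whatever the replicate mean, cut at about 25% in these data; inconclusive means mean inhibition reaches that limit but some replicates miss it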;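 further: 0% = plate neutral control median and 100% = total signal loss; the record names both 10 and 1 µM as test concentration; the first replicate is given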
# Target sequence (P42568 whole entry, looked up): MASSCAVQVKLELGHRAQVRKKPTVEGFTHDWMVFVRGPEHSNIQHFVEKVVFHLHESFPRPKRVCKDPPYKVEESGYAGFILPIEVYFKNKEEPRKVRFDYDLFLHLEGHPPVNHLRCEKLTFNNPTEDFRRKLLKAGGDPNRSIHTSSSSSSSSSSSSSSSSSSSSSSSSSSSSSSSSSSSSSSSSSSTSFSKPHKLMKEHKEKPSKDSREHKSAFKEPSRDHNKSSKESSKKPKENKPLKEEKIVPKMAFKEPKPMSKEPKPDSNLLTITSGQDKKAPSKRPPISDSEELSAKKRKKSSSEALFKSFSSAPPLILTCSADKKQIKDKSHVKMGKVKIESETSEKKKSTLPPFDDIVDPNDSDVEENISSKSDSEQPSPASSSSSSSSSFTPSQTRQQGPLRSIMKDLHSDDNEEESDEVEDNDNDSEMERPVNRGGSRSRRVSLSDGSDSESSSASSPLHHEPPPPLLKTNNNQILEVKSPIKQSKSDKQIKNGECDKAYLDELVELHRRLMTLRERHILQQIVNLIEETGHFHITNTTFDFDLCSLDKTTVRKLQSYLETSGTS
# FGF22 binding – shifts melting point of recombinant human FGF22 | Q9HCT0 | recombinant FGF22 thermal shift, SYPRO orange fluorescence; percent of sucrose octasulfate shift, DMSO zero | calls only at 9.99 µM | hit rate 1.5% among 340,000;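 active means melting point raised past a set limit in the mean and every replicate; inconclusive means no clear call; three in four hits are not shown here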
# UCH37 inh – blocks the human deubiquitinase UCH37. Q9Y5K5. purified proteasome/UCH37, Ub-AMC cleavage fluorescence. inhibition, % (concentration not given with the values). hit rate 0.33% among 330,000. AID 588478;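 active means mean of two replicates above 20%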;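 further: 0% = compound-free wells with enzyme and 100% = wells lacking proteasome; stock transfer was 100 nL into about 20 µL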
#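 Assay system: Proteasome-bound UCH37. Buffer or medium: pH 7.4 Tris-HCl (50 mM) with ovalbumin, ATP-MgCl2, DTT. Incubation: 30 min preincubation with enzyme, 25 min cleavage at room temperature. Measured by: fluorescence, ex 355 nm, em 460 nm. Read-out basis: percent inhibition. Control set: wells without proteasome as full block, compound-free enzyme plus substrate as uninhibited.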
# Ecoli growth – E. coli growth inhibition; hit rate 0.21% among 330,000; Escherichia coli growth, OD600, 23 h; stronger effect = lower value; OD600 absorbance (test concentration not listed);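 active means OD600 absorbance below the run mean of sample wells minus 3.6 SD, in any replicate, cut at about 0.56 in these data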;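 further: stock transfer was 300 nL into about 60 µL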
# Vif TR-FRET – HIV-1 Vif–A3G interaction blockers – biochemical, TR-FRET, GST-Vif 1-94, biotin-A3G peptide, dose response retest, primary screen (AID 1117319) | TR-FRET GST-Vif / biotin-A3G peptide binding; higher % means a stronger effect; test concentration not given here; strong numbers were not always called active | inhibition, %; hits with a dose series show IC50 in µM | hit rate 0.57% among 260,000;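 active means above the screen mean plus three standard deviations and confirmed in dose response; inconclusive means results disagree or hit not tested in dose response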;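 further: Vif residues 1-94 fused to GST binding biotinylated APOBEC3G peptide 110-148; 0% = full assay without inhibitor and 100% = GST in place of GST-Vif; retest series ran down from 100 µM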
# RanGTP-Impb inh – inhibitors of RanGTP-importin-beta interaction, primary screen, biochemical, FRET, CFP-Ran, YFP-importin-beta, homogeneous. cell-free CFP-Ran/YFP-importin-beta FRET ratio. inhibition, % (no concentration beside the values). hit rate 1.1% among 300,000. AID 2216;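 active means most replicates above 15%; inconclusive means exactly half above 15%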;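 further: 0% = DMSO wells and 100% = Ran loaded with GDP instead of GTP; wells of about 40 µL received 100 nL stock; the first replicate is given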
# HNF4A DNA FP – change in binding of human HNF4 alpha to DNA; P41235; HNF4a-FITC DNA binding, fluorescence polarization, 1 h; activity change, % at 10 µM; hit rate 0.3% among 360,000; in the data active means activity change above about 30%, passing the limit was not always enough;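 further: controls were the assay level and a saturating level of protein; the project sought stronger binding though the title names inhibitors; some compounds called inactive have numbers as strong as hits; positive values seem to mean higher polarization but the record does not say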
# Target sequence (P41235 whole entry, looked up): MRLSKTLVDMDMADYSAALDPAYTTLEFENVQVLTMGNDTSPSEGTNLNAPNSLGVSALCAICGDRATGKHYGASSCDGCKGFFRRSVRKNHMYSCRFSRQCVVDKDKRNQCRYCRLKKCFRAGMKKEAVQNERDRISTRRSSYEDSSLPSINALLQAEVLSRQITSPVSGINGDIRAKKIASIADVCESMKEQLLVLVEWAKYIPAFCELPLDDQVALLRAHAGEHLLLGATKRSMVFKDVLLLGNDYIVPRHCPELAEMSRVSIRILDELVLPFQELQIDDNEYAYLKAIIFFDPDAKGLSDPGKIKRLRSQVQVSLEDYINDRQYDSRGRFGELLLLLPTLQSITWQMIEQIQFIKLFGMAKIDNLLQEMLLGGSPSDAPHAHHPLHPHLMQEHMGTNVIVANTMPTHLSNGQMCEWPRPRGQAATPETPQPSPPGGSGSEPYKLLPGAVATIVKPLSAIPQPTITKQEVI
# * marks the source's active call; other numbers are inactive results; i = inactive; ? = inconclusive; . = no result given; + = active, no number; & = joins results of further samples.
SMILES,AF4-AF9 inh,FGF22 binding,UCH37 inh,Ecoli growth,Vif TR-FRET,RanGTP-Impb inh,HNF4A DNA FP
COc1cccc(CN2CCNC(=O)C2CC(=O)N(C)CCC2CCOCC2)c1 (stereo not given),0.0,i,-6.7,0.72,0%,-0.2,0.8
CCCCCCc1cc2cc(C(=O)Nc3ccccc3OC)c(=O)oc2cc1O,-8.5,i,.,.,-12%,93*,1.2
O=C(Nc1cccc([N+](=O)[O-])c1)c1ccc2nsnc2c1,-1.4,i,-0.4,0.66,.,-1.3,0.9
CCOc1ccc(/C=N/NC(=O)CN2CCCCCCC2)cc1,2.2,i,.,.,7%,-2.5,-2.9
O=C1NN=C(c2ccccc2)C1Cc1ccccc1 (stereo not given),9.3,i,.,.,0%,.,-5.1
CCN(CC)S(=O)(=O)c1cc([N+](=O)[O-])ccc1NNC(=O)Nc1ccc(F)cc1,.,.,3.0,0.7,19%,0.0,-2.6
O=C(NC(=S)Nc1ccccc1O)c1ccc(Cl)cc1Cl,4.7,i,0.2,0.62,6%,1.4,5.1
Cc1cc(Cl)ccc1OCC(=O)OCC(=O)N(CC(C)C)c1c(N)n(Cc2ccccc2)c(=O)[nH]c1=O,-0.8,i,1.5,0.7,-2%,2.6,-1.1
COc1ccc(NC(=O)c2cc3ccccc3o2)cn1,-0.4,i,3.4,0.64,.,-0.2,-0.8
COc1ccc(CCNC(=O)COC(=O)C2=NNC(=O)CC2)cc1,1.4,i,.,.,1%,.,3.7
Cc1cc(C(=O)NC(C)c2ccc3c(c2)OCO3)cs1 (stereo not given),.,.,1.6,0.63,0%,?,-2.0
O=C(CS(=O)(=O)c1ccccc1)Nc1ccc(Br)cn1,.,.,-0.1,0.7,6%,4.2,-2.6
Cc1ccc(C2=NN(CC(=O)NCCN(CC(C)C)CC(C)C)C(=O)CC2)cc1,0.3,i,-0.6,0.7,-9%,-0.4,2.1
CC(=O)Nc1ccc(-c2cc(N)n(-c3ccccc3)n2)cc1,3.1,i,7.0,0.67,22%,-1.8,5.3
COc1ccc(N2CCN(CCCNC(=O)c3cc4sccc4n3C)CC2)cc1,28*,i,3.4,0.62,11%,2.9,0.6
C=CC[C@H](CC(=O)N(CCO)Cc1ccccc1)C(=O)N[C@H](C)COC(=O)[C@@H](CC=C)CC(=O)OC(C)(C)C,-1.1,i,0.8,.,.,.,6.0
COc1ccc(C(=O)NCc2nnc(SCC(=O)NO)n2Cc2ccccc2)cc1,26*,i,-1.8,0.71,0%,-2.5,2.2
OCC1OC(O)CC(O)C1O (stereo not given),-1.0,i,.,0.67,.,.,1.1
Nc1ccccc1C(=O)NCc1ccc(F)cc1,-1.1,i,-75,0.68,1%,1.8,0.4
COCCN1C(=O)C(=O)/C(=C(/O)c2ccc3c(c2)OCCO3)C1c1ccc(C(=O)OC)cc1 (stereo not given),.,.,4.8,.,-5%,-0.1,-0.3
CCOC(=O)C1=C(COC(=O)c2ccc(Br)c(S(=O)(=O)N3CCOCC3)c2)NC(=O)NC1C (stereo not given),6.1,i,0.7,0.68,.,.,-2.5
CC(C)CC1Nc2ccc(C(=O)NCc3ccc4c(c3)OCO4)cc2NC1=O (stereo not given),.,.,5.6,0.66,.,-3.3,1.6
CSCCC(NC(=O)c1ccccc1Br)C(=O)NCC1CCCCC1 (stereo not given),0.4,.,-0.7,0.73,-13%,-0.4,-2.5
CC1(C)CC(=O)C2=C(C1)NC(SCC(=O)Nc1ccccc1)=C(C#N)C21CCCCC1,.,.,3.0,0.81,3%,-2.3,-3.3
CC(=O)c1ccc(C(=O)Nc2ccc3c(c2)C(=O)NC3=O)cc1,-2.7,i,-5.4,0.69,.,-1.0,-0.5
O=C(c1ccccc1NS(=O)(=O)c1ccc([N+](=O)[O-])cc1[N+](=O)[O-])N1O[C@@H]2C=C[C@H]1C2,-0.6,.,-13,0.7,>100µM*,.,1.5
CCOc1cccc2sc(N3CCN(C(=O)c4ccc5ncsc5c4)CC3)nc12,-1.0,i,1.5,0.69,9%,3.4,2.3
COc1ccc(-c2oc3c(c2-c2cnc(OC)nc2)C(O)CC3)cc1 (stereo not given),0.0,i,.,.,.,.,-0.5
CC(=O)c1sc(C(C)(C)C)cc1NC(=O)/C=C/C(=O)O,.,i,7.4,0.67,5%,-0.4,2.4
O=[N+]([O-])c1ccccc1Nc1ccc(O)cc1,28*,.,.,.,-6%,-5.9,2.7
CCOc1ccc(C(=O)NCC(=O)Nc2ccc3c(c2)OCO3)cc1OCC,5.0,i,0.4,0.66,5%,.,0.6
O=C(Cn1cc2c(n1)CCCC2)N1CCCC1,-3.5,i,0.7,0.74,22%,2.5,3.7
COc1ccccc1NC(=O)CC1CCCC1,-16,i,3.1,0.7,.,-4.0,-0.4
CCC(C)n1c(SCc2ccccc2)nc2ccsc2c1=O (stereo not given),.,.,1.1,0.69,-2%,-4.3,1.4
CCN(CC)c1ccc(NC(=O)c2ccccn2)cc1S(=O)(=O)Nc1ccccc1OC,-2.7,i,1.9,0.71,5%,.,-3.5
O=C(/C=C/[C@H]1O[C@@H](n2ccc(=O)[nH]c2=O)[C@H](O)[C@@H]1O)NCc1cccs1,-2.9,i,.,.,.,.,6.9
O=C(COc1ccccc1)NCC(=O)N/N=C/c1ccco1,.,.,.,.,21%,4.5,-1.0
CC(=O)c1ccc(NC(=O)c2c(C)nn(-c3ccccc3)c2Cl)cc1,-1.5,i,2.7,0.61,-14%,4.7,1.3
CN(c1ccccc1)S(=O)(=O)CS(=O)(=O)N(C)c1ccccc1,2.0,i,0.8,0.64,-5%,.,-0.9
O=C(NC(=S)NC1CCSC1=O)c1ccccc1F (stereo not given),.,.,1.9,0.68,16%,0.0,2.6

# AF4-AF9 inh: what is marked active above.
Structure,AF4-AF9 inh,FGF22 binding,UCH37 inh,Vif TR-FRET,RanGTP-Impb inh,HNF4A DNA FP
COc1ccc(N2CCN(CCCNC(=O)c3cc4sccc4n3C)CC2)cc1,28*,i,3.4,11%,2.9,0.6
COc1ccc(C(=O)NCc2nnc(SCC(=O)NO)n2Cc2ccccc2)cc1,26*,i,-1.8,0%,-2.5,2.2
O=[N+]([O-])c1ccccc1Nc1ccc(O)cc1,28*,.,.,-6%,-5.9,2.7

# The list goes on.
SMILES,AF4-AF9 inh,FGF22 binding,UCH37 inh,Ecoli growth,Vif TR-FRET,RanGTP-Impb inh,HNF4A DNA FP
O=C(CCCc1ccccc1)Nc1ccnn1C1CCN(Cc2ccccc2)CC1,-2.6,i,1.5,0.68,-5%,-3.6,0.0
CN(c1ccccc1)S(=O)(=O)c1ccc(C(=O)NNC(=O)c2ccccc2F)cc1,0.5,i,4.1,0.65,.,.,-1.4
COc1ccc(C(=O)N2CCN(Cc3cn[nH]c3-c3ccc(OC)cc3F)CC2)cc1,1.4,i,2.6,0.66,.,8.8,1.5
Cc1c([N+](=O)[O-])c(C(=O)N2CCCC2)nn1C,2.3,i,1.9,0.76,3%,5.4,-0.2
Cc1cc(CSCc2ccc(Cl)cc2)no1,-2.7,i,-0.1,0.65,-2%,3.7,-0.2
COc1ccccc1Nc1nc(N)nc(CN2CCC(C)CC2)n1,0.1,i,3.4,0.69,13%,6.0,-1.9
COc1ccc(N2CCN(C(=S)Nc3ccc(S(N)(=O)=O)cc3)CC2)cc1,-3.7,i,1.5,0.73,-17%,2.1,-0.1
CCCN(CC(=O)Nc1ccccc1OC)C(=O)Cc1ccccc1F,0.6,i,-2.4,0.7,.,0.8,4.8
O=C(CSc1nc2scc(-c3ccco3)c2c(=O)n1-c1ccccc1)N1CCOCC1,.,.,-1.4,0.76,5%&-4%,0.7,-0.2
Cc1ccccc1-c1cc(C(=O)NCC2CC2)nn1CC1CC(c2cccc([N+](=O)[O-])c2)=NO1 (stereo not given),0.5,i,-0.7,0.69,.,.,-0.5
COc1ccccc1/C=C/C1(C(=O)NC2CCCC2)CC(=O)N1c1ccc(F)cc1 (stereo not given),.,.,2.2,0.63,1%,2.1,-2.6
O=C(NCc1cccc(Cl)c1)C1Cc2c(-c3ccc(Cl)cc3)ccnc2O1 (stereo not given),-0.8,i,.,.,.,.,0.1
CN(Cc1ccccc1)C(=O)C1CCCN1S(=O)(=O)c1ccc(Cl)cc1 (stereo not given),-0.3,i,2.4,0.72,-3%,.,1.5
Cc1ccc(Cn2cnc3c(nnn3Cc3ccc(Cl)cc3)c2=O)cc1,.,.,1.4,0.76,5%,-1.2,-0.5
CCC(=O)Nc1cc(C(C)C)c(O)cc1C,.,.,2.1,0.67,23%,-0.9,0.7
Cc1ccc(C)c(N(C(=O)Cn2nnc3ccccc32)C(C(=O)NCc2ccco2)c2ccncc2)c1 (stereo not given),.,.,0.8,0.75,-3%,-1.8,2.4
CCN(CC)S(=O)(=O)c1ccc(S(=O)(=O)N(CC(=O)Nc2ccccc2)CC2CCCO2)cc1 (stereo not given),.,.,0.9,0.71,2%,1.3,0.6
Cc1cc2ccccn2c1C(=O)c1cccc(S(=O)(=O)N2CCOCC2)c1,17,i,4.5,0.69,10%,-2.0,1.4
COc1ccc(CNC[C@H]2O[C@@H](n3cnc4c(N)ncnc43)[C@H](O)[C@@H]2O)cc1OC,.,.,2.9,0.68,.,.,-3.5
O=C(O)c1nc(N2CCCCC2)ncc1Cl,.,.,-3.9,0.75,-7%,-1.1,1.8
Cc1csc(NC(=O)c2ccc(-c3ccc(Cl)cc3Cl)o2)n1,-1.4,i,-158,0.65,.,-3.6,-3.5
COc1ccc(S(=O)(=O)N2CCN(C(=O)c3c(-c4ccccc4)noc3C)CC2)cc1,.,.,1.0,0.74,0%,-3.6,-2.6
CN(c1ccccc1)S(=O)(=O)c1ccc(C(=O)NCc2ccccc2CN2CCCC2)cc1,2.1,i,5.1,0.66,-3%,.,5.7
COc1cccc(OC)c1NC(=O)C1CCCN1C(=O)Nc1ccccc1F (stereo not given),-3.9,i,1.3,0.68,.,6.7,-1.8
COc1ccc(-c2nc3cnccn3c2Nc2ccc(C)cc2)cc1,-12,i,-168,0.78,0%,7.6,-0.2
CC(=O)Nc1cc2c(nc1C)nc(C)n2Cc1ccc(Br)cc1,.,.,3.8,0.75,4%,-1.7,-1.4
Cc1ccc2nc(-c3ccccc3C)oc(=O)c2c1,2.8,i,-2.6,0.74,.,5.4,1.0
CCOc1ccccc1NC(=O)CN(c1ccc(C)cc1)S(=O)(=O)c1c(C)n[nH]c1C,.,.,2.9,0.69,-5%,-0.1,-3.2
COC(=O)[C@]12CCCCC=C1N(Cc1ccc(Cl)cc1Cl)C(=O)[C@H](CC(=O)NCc1cccc(C(F)(F)F)c1)C2,0.2,+,.,.,.,.,-1.8
COCc1nc2ccccc2n1Cc1cccc(C)c1,.,.,1.3,0.67,-6%,4.3,0.0
CC(=O)c1ccc2noc(-c3ccccc3)c2c1,17,.,-24,0.67,7%,2.2,5.1
CCn1c(SCC(=O)Nc2nc(C)c(C)s2)nnc1-c1ccco1,.,.,1.6,0.67,15%,-0.9,0.5
COc1ccc(NC(=O)CN2CCCCC2)cc1S(=O)(=O)N1CCCCC1,-0.4,i,1.1,0.71,3%,.,5.5
CC(C)C[C@H](NC(=O)c1[nH]cnc1C(=O)N[C@@H](Cc1ccccc1)C(=O)OCc1ccccc1)C(=O)OCc1ccccc1,0.7,i,2.8,.,.,1.9,4.7

# Screening data deposited in PubChem BioAssay by several laboratories.

# This is a subset; the hit share may differ from the screen's.
